Rango dissoc inh: prevents RanGTP from dissociating the Rango-importin beta complex. O95149+P62826. Biochemical FRET Rango-importin beta, RanGTP-induced dissociation. Potency, µM (doses to about 46.1 µM), without a hit: at the top dose activity change, negative = inhibition. 0.071% of 340,000 active. AID 540253; active means falling FRET ratio curve, often poorly fitted, with flat reads before Ran was added; inconclusive means other falling curves, or compound fluorescence or quenching; inactive means flat or rising ratio curve;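 further: potency means the concentration at half of the fitted maximal effect; % of control where 0% means no effect; nearly all actives have a fitted effect of over 45% in size; -100% = wells without RanGTP and RCC1; the record marks most hits as doubtful in a second field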
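Rango/importin beta premix (0.1/0.25 uM final), PBS + 1 mM DTT + 0.02% Tween-20 + 0.1% BSA; cpd 5 min RT; FRET pre-read; + RanGTP-RCC1 (0.6 uM Ran, 2 mM GTP, 0.2 uM RCC1); 45 min RT; FRET post-read, ex 430, em 486/530 nm.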
Rango complex inh: inhibitors of Rango-importin beta complex formation. Q14974. Rango CFP/YFP FRET sensor + importin beta, 45 min. Potency, µM (doses to about 92.2 µM), for inactives: at the top dose inhibition of complex formation. 0.031% of 340,000 active. AID 540263; active = rising FRET ratio curve, often small or poorly fitted; inconclusive = mostly compound fluorescence or quenching in the first reads; inactive = flat curves in all reads;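 further: potency means the concentration at half of the fitted maximal effect; 0% = DMSO wells and 100% = buffer wells lacking importin beta; nearly all actives have a fitted effect of over 15% in size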
Target sequence (Q14974 whole entry, looked up): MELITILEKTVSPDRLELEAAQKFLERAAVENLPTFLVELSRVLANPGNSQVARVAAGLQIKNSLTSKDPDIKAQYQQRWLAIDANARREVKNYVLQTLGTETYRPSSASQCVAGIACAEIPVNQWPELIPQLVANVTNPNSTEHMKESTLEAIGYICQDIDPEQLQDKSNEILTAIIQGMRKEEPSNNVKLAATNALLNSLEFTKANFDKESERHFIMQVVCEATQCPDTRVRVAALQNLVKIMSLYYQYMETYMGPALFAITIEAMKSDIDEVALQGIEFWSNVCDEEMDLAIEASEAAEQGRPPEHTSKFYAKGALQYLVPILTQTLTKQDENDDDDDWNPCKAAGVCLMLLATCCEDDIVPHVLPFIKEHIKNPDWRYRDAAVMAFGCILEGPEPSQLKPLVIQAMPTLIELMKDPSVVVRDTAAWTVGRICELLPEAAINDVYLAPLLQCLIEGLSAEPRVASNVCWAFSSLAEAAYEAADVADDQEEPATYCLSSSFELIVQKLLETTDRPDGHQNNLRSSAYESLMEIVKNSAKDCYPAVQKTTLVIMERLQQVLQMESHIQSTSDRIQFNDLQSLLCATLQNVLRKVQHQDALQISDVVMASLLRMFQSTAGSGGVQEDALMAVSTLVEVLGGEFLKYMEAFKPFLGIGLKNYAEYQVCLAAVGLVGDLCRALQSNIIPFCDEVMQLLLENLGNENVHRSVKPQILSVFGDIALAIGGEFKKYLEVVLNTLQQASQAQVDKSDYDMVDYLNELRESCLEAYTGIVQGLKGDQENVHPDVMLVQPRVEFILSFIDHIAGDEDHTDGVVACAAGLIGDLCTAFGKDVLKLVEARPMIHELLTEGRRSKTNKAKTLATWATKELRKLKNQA
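FRET biosensor Rango (snurportin 1 IBB between N-terminal EYFP and C-terminal Cerulean), 50 nM in PBS/1 mM DTT/0.02% Tween-20/0.1% BSA, preincubated 5 min RT with compound; 0.125 microM importin beta added, 45 min RT, CFP/YFP FRET ratio read.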
GLA inh pH 4.5: alpha-galactosidase A (human) inhibition, pH 4.5; 230,000 tested, under 10 active; activity change, negative = inhibition, % at 105 µM; purified enzyme, 4-MU-alpha-Gal fluorescence, pH 4.5; AID 1467; inconclusive = small, poorly fitted or top-dose-only inhibition, or a rising curve; inactive = flat fitted curve, though single readings scatter; no compound was filed as active;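 further: 0% = full activity with enzyme and -100% = basal without enzyme; dose as in the result columns while the protocol names 77 µM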
miR-21 FLuc: raises the signal of a miR-21 reporter; HeLa miR-21 FLuc reporter, luciferase, 48 h; Potency, µM (top dose mostly 38.3 µM), inactives show at the highest dose reporter change, positive = more light; 340,000 tested, under 10 active; active = well fitted rising curve with a large enough effect; inconclusive = small, poorly fitted or top-dose-only effect; inactive = no such curve, though single readings can be large or run the other way;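 further: % of control where 0% means no effect; miR-21 action dims this reporter so a rising signal means less miR-21 action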
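HeLa cells endogenously expressing miR-21, stably carrying CMV-driven firefly luciferase with a downstream miR-21 binding site, 2000 cells/well. Titrations up to approximately 40 uM, 48 hours; luciferase luminescence read.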
Active calls of the source: *; ? = inconclusive; . = not tested or not shown.

Each structure is followed by: Rango dissoc inh	Rango complex inh	GLA inh pH 4.5	miR-21 FLuc
CC(=O)c1c(C(C)=O)c(C)n(NC(=O)c2cccnc2)c1C
 : 1%	0.7%	1	-1%
Cc1ccc(/C=N/NC(=O)c2c(-c3ccccc3)noc2C)o1
 : -9%	0.8%	-14	-7%
Cc1nnc(SCc2nc3sc4c(c3c(=O)[nH]2)CCCC4)[nH]c1=O
 : -20%	?	3	-5%
Cn1c(N)c(C(=O)CSc2nc3ccccc3[nH]2)c(=O)n(C)c1=O
 : 8%	-3.5%	2	-1%
CN(C)S(=O)(=O)c1cccc(NC(=S)Nc2cc(Cl)cc(Cl)c2)c1
 : 1%	-0.1%	3	9%
COc1ccc(/C=N/NS(=O)(=O)c2ccccc2)cc1OC(=O)c1ccc(C)cc1
 : 1%	-4.2%	-8	-4%
CC(=O)Nc1ccc(NC(=O)C(C)OC(=O)C2(c3ccc(Cl)cc3)CCCC2)cc1 (stereo not drawn)
 : 0%	4.5%	-17	15%
Cc1cc(=O)cc(C)n1-c1ccc(Cl)cc1
 : 10%	0.8%	6	-3%
COc1ccc2[nH]cc(C(=O)CN3CCCCC3)c2c1
 : 14%	2.0%	-7	-6%
O=[N+]([O-])c1cccc(/C=N/Nc2nc(NCc3ccccc3)nc(N3CCOCC3)n2)c1O
 : 1%	3.3%	2	21%
CCOC(=O)CCN(Cc1cccs1)S(=O)(=O)c1ccc(Cl)cc1
 : -3%	-4.6%	-4	-3%
CCCCc1ccc(NS(=O)(=O)c2cccc(C(=O)N3CCCN(C)CC3)c2)cc1
 : 32%	-0.2%	.	.
Cc1ccc2cc3cc(C(=O)N4CC(C)CC(C)C4)oc3nc2c1 (stereo not drawn)
 : 15%	3.7%	5	-35%
CCCN(CCC)CC(O)CN1C(=O)N(CN2C(=O)N(CC(O)CN(CCC)CCC)C(=O)C2(C)C)C(C)(C)C1=O (stereo not drawn)
 : 1%	-2.1%	-1	-4%
Cc1cccc(NC(=O)N2CCC(NC(=O)C3CCCCC3)CC2)c1
 : 13%	-0.2%	.	-1%
Cc1ccc(NC(=O)c2ccc(Nc3ccccc3F)nc2)cc1
 : 0%	?	-11	-24%
O=C(NCc1ccco1)C1OCCc2ccccc21 (stereo not drawn)
 : -6%	-3.3%	2	-1%
CCCOc1c(Br)cc(C(=O)OCc2cc(=O)n3ccsc3n2)cc1OC
 : -17%	0.6%	.	.
CCOC(=O)C1=C(COC(=O)COc2cccc(C)c2C)NC(=O)NC1C (stereo not drawn)
 : -1%	0.0%	.	.
CCOc1ccc(NC(=O)CCc2nnc3ccc(N4CCC5(CC4)OCCO5)nn23)cc1
 : -6%	2.9%	.	-7%
CCc1ccc(CN(C)C(=O)CCc2nnc(COc3ccccc3)o2)cc1
 : -13%	2.5%	-5	-34%
Cc1ccc(C)n1-n1c(C)nc2scc(-c3cccs3)c2c1=O
 : 3%	0.3%	-15	-13%
Cc1cccc(CSCc2ccc(C(=O)O)o2)c1
 : 17%	2.6%	.	-10%
COc1ccccc1C(=O)NCCC(=O)Nc1ccc(S(=O)(=O)N2CCC(C)CC2)cc1
 : 7%	-0.5%	.	.
O=C(C1CCCN(Cc2ccccc2[N+](=O)[O-])C1)N1CCCCC1 (stereo not drawn)
 : -11%	1.9%	.	-1%
CC(C)N1CCOC1c1ccccc1 (stereo not drawn)
 : 10%	1.7%	.	.
CC(NCc1ccc(S(N)(=O)=O)cc1)C(=O)Nc1ccc([N+](=O)[O-])cc1Cl (stereo not drawn)
 : 19%	2.2%	-3	-1%
Cc1ccc(SCc2cc(=O)[nH]c(N3CCCCC3)n2)cc1
 : 3%	0.6%	0	-3%
N#CC(CO)(Cc1ccc(OC(F)F)cc1)c1nc2ccccc2[nH]1 (stereo not drawn)
 : -11%	-3.8%	-5	-30%
CCN(CC)S(=O)(=O)c1ccc(N2CCOCC2)c(NC(=O)C2COc3ccccc3O2)c1 (stereo not drawn)
 : 1%	-3.3%	4	6%

Some entries already given, showing only Rango dissoc inh and GLA inh pH 4.5:
SMILES	Rango dissoc inh	GLA inh pH 4.5
O=C(C1CCCN(Cc2ccccc2[N+](=O)[O-])C1)N1CCCCC1 (stereo not drawn)	-11%	.
CC(C)N1CCOC1c1ccccc1 (stereo not drawn)	10%	.

Next part:
Each structure is followed by: Rango dissoc inh	Rango complex inh	GLA inh pH 4.5	miR-21 FLuc
O=C(Nc1ccccc1)c1ccc2c(c1)CCN2S(=O)(=O)c1ccccc1
 : 8%	-0.2%	.	3%
COc1ccc(NS(=O)(=O)c2cc3c(cc2C)N(C(C)=O)CCO3)c(OC)c1
 : 8%	1.1%	.	0%
CCOC(=O)c1c(C)c(C(=O)OCC)n(C)c1C
 : 13%	-0.4%	2	-3%
CSc1ccc(/C=N/Nc2cccc(C(=O)O)c2)cc1
 : -13%	-3.4%	5	-65%
CSc1nc2nccc(/C=C\c3ccccc3)n2n1
 : -3%	?	4	28%
CN(C)/C=C/c1onc(-c2c(F)cccc2Cl)c1C#N
 : -19%	?	-15	-17%
COC(=O)[C@]1(C)N[C@H](CN(C)C(=O)Nc2ccc(Cl)cc2)[C@@H]2C(=O)N(C)C(=O)[C@@H]21
 : 18%	0.6%	.	.
N=c1c[n+](-c2ccc(Cl)cc2)[n-]o1
 : 3%	-0.2%	2	2%
C=CCc1cc(C=O)cc(OC)c1OCc1ccc(C(=O)O)cc1
 : 3%	-1.6%	-4	-14%
COc1cccc(-c2nc(CS(=O)(=O)CC(=O)Nc3ccccc3C)c(C)o2)c1
 : 6%	1.2%	.	-1%
CC(=O)c1ccc(NC(=O)Nc2ncn(Cc3cccc(C)c3)n2)cc1
 : 24%	-1.6%	3	-25%
CCCn1cnc2c(c1=O)c1nc3ccccc3nc1n2CCC1=CCCCC1
 : .	.	-5	-1%
Cc1nnsc1C(=O)N1CCCC(Nc2ccc(F)c(F)c2)C1 (stereo not drawn)
 : 0%	0.4%	.	-8%
CC(C)CC(=O)OC(C)(C)[C@@H]1Cc2c(ccc3ccc(=O)oc23)O1
 : -1%	0.5%	.	.
CCc1cccc(NC(=O)Cc2ccc([N+](=O)[O-])cc2)c1
 : 4%	-6.5%	2	-4%
CCn1c(SCC(=O)N/N=C/C=C/c2ccco2)nnc1-c1ccc(OC)cc1
 : -2%	-0.2%	7	-12%
CC[C@]12c3[nH]c4ccccc4c3CCN1C(=O)C(CC(=O)NCc1ccc(OC)c(OC)c1)C[C@@H]2C(=O)N1CCN(C(=O)C2CC2)CC1 (stereo partly drawn)
 : 10%	-0.6%	.	.
COc1ccccc1NC(=O)CCN1C(=O)c2ccccc2S1(=O)=O
 : -11%	-2.1%	1	2%
O=C(NC(Cc1c[nH]c2ccccc12)C(=O)O)c1ccccc1 (stereo not drawn)
 : -4%	2.3%	-17	-5%
CCOc1ccc(N(Cc2cc3cc(C)ccc3[nH]c2=O)C(=O)COC)cc1
 : -18%	0.6%	.	0%
CNC(=O)/C(=C/c1ccc2c(c1)OCO2)NC(=O)c1ccc(Br)cc1
 : -3%	?	4	-4%
Cc1ccc(N2C(=O)S/C(=C/c3cn(C)c4ccccc34)C2=O)cc1
 : 1%	3.4%	-3	-28%
COc1cc(C(=O)Nc2cccc3cccnc23)cc(OC)c1OC
 : 10%	-2.7%	-29	8%
COc1cc(C(C)=O)ccc1OC(=O)c1cc2cccc(OC)c2oc1=O
 : -2%	-2.2%	0	-5%
CCOc1ccc(C(C)(C)C)cc1S(=O)(=O)N1CCOCC1
 : 10%	-1.0%	-5	-13%
COc1ccccc1NC1=C(Cl)C(=O)N(c2ccccc2)C1=O
 : -8%	1.0%	-3	-3%
CCC(C)/C(C)=N/NC(=O)C1COc2ccccc2O1 (stereo not drawn)
 : 4%	1.9%	-3	10%
CCCC(=O)Nc1nn(C)c2nc3c(C)cccc3cc12
 : ?	?	6	0%
COc1cccc(-c2nc(=S)c3c(o2)CCCC3)c1
 : 1%	-1.5%	-2	-65%
FC(F)(F)c1cc(-c2ccccc2)nc(N2CCCCC2)n1
 : -3%	-0.4%	-4	3%

(listing goes on)
Each structure is followed by: Rango dissoc inh	Rango complex inh	GLA inh pH 4.5	miR-21 FLuc
O=C(CN(C(=O)CNC(=O)c1cccs1)c1ccccc1)NC1CCCCC1
 : -22%	-4.0%	.	-2%
Cc1cccc(CNc2ncnc3ccc(-c4ccc5c(c4)OCO5)cc23)c1
 : -6%	2.3%	3	.
O=C(NC1CCCCC1)C1CC=CCC1C(=O)OCC(Cl)=C(Cl)Cl (stereo not drawn)
 : ?	0.3%	-2	2%
Cc1ccccc1NC(=O)C(C)SCc1ccccc1 (stereo not drawn)
 : -13%	-1.3%	.	-7%
COc1ccc(OC)c(NC(=O)C2CCCN2S(=O)(=O)c2cccc3nsnc23)c1 (stereo not drawn)
 : 2%	3.3%	.	-3%
Cc1nc(Cl)c(C#N)cc1-c1ccccc1
 : 5%	-4.1%	3	-11%
O=c1ccnc2n1COCS2
 : -13%	-3.6%	1	1%
Cc1ccc(CNc2cccnc2)cc1
 : 9%	1.6%	.	-12%
Cc1cccc(NC(=S)N2CCC(c3nc4ccccc4s3)CC2)c1
 : -1%	1.2%	-12	-2%
CCc1ccc(/C=C2/SC(=S)N(CCC(=O)Nc3cccc(C(=O)O)c3)C2=O)cc1
 : -8%	-2.2%	.	2%
COc1ccc(/C=N/Nc2cc(N(C)C)nc(N(C)C)n2)cc1
 : -1%	-4.4%	-7	-14%
O=C(NCCSc1ccccc1)c1cncc(Br)c1
 : 0%	1.6%	8	-55%
O=C(NCc1ccccc1)c1onc(CS(=O)(=O)c2ccccn2)c1C(=O)NCc1ccccc1
 : 11%	?	.	.
Cc1ccc(C(=O)Cn2c(=N)n(CCN3CCOCC3)c3ccccc32)cc1
 : 1%	-0.3%	.	.
Cc1cc(C)c(C(=O)N2CCC(N3CCC(C(=O)NC(C)C)CC3)CC2)o1
 : -1%	-0.3%	.	0%
CC1=[N+]([O-])C(C)(C)N(O)C1(C)C
 : -3%	3.0%	-1	-1%
CCOc1ccc(CNC(=O)c2ccc(Sc3ccc(C)cc3)c(NC(C)=O)c2)cc1
 : 8%	0.3%	-4	11%
O=C(O)c1cc2nccc(-c3ccco3)n2n1
 : ?	?	4	-2%
O=C(Nc1cccc(Cl)c1)C1C2CCC3C(CCC21)C3(Cl)Cl (stereo not drawn)
 : 7%	0.1%	-7	21%
Cn1c2ccccc2c(=O)c2cc(C#CC3=CCCCC3)ccc21
 : ?	?	.	.
Cc1ncn(C23CC4CC(CC(C4)C2)C3)n1
 : -2%	0.7%	5	-13%
N#Cc1c(Nc2ccc(Cl)cc2)s[nH]c1=O
 : -22%	-4.4%	4	1%
CCOn1c(=O)c(=O)n(O)c2ccccc21
 : -3%	2.2%	7	3%
CC(=O)Nc1ccccc1NC(=O)C/C(C)=N/NC(=O)Cc1cccc2ccccc12
 : 16%	-1.5%	.	-4%
CC(=O)c1cccc(NC(=O)NC2CCCc3ccccc32)c1 (stereo not drawn)
 : 1%	-4.3%	1	-3%

Given field by field: part of the list above
Cc1nc(Cl)c(C#N)cc1-c1ccccc1
- Rango dissoc inh: 5%
- Rango complex inh: -4.1%
- GLA inh pH 4.5: 3
- miR-21 FLuc: -11%
O=c1ccnc2n1COCS2
- Rango dissoc inh: -13%
- Rango complex inh: -3.6%
- GLA inh pH 4.5: 1
- miR-21 FLuc: 1%
Cc1ccc(CNc2cccnc2)cc1
- Rango dissoc inh: 9%
- Rango complex inh: 1.6%
- GLA inh pH 4.5: .
- miR-21 FLuc: -12%
Cc1cccc(NC(=S)N2CCC(c3nc4ccccc4s3)CC2)c1
- Rango dissoc inh: -1%
- Rango complex inh: 1.2%
- GLA inh pH 4.5: -12
- miR-21 FLuc: -2%

Assay outcomes deposited in PubChem by National Center for Advancing Translational Sciences (NCATS).

These rows are one share of the data, so the mix of outcomes need not match the whole.
